RE007 growth inh: less growth of the S. pombe RE007 Vpr strain | S. pombe RE007 Vpr strain, BacTiter-Glo ATP luminescence, 24 h; control for the full effect not named in the record | Potency, µM (top dose mostly 92.2 µM), without a hit: top-dose activity change, negative = less growth | hit rate 0.21% among 360,000 | AID 651644; active = well fitted falling curve with a large enough effect; inconclusive = small, poorly fitted or top-dose-only effect; inactive = no such curve, though single readings can be large or run the other way;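 also: % is scaled to controls: 0 for no effect and ±100 for the full control effect; nearly all actives have a fitted effect of over 50% in size; the assay follows cell death caused by Vpr and the record does not say whether a fall means rescue or toxicity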
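Fission yeast RE007 carrying one integrated HIV-1 vpr copy, seeded at OD 0.01 in PMG+AL medium with 23 nL pinned compound. Grown 24 h at 30 degrees; viability read by BacTiter-Glo luminescence after 5 min.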
NS1 function inh: influenza NS1 inhibition | S. cerevisiae slowed by influenza A NS1, growth recovery by OD600 | Potency, µM (doses to about 46.1 µM), for inactives: at the highest dose activity, positive = more growth | hit rate 0.4% among 270,000 | AID 2326; also: actives are rising curves; nearly all actives have a fitted effect of over 50% in size
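Compounds were scored for reversing the slow growth caused by influenza A NS1 in S. cerevisiae, measured by optical density at 600 nm. Assay medium contained 2% galactose at pH 6.0; NS1-free yeast of the same strain were the positive control.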
Cruzain Triton: inhibitors of Trypanosoma cruzi cruzain with detergent; AID 1478; Potency, µM, inactives show max response, negative = inhibition, actives largely listed as inhibitors; purified cruzain, Z-FR-AMC fluorescence, 0.01% Triton; hit rate 0.43% among 200,000; P25779; active = well fitted curve in the direction sought with a large enough effect; inconclusive = small, poorly fitted or top-dose-only effect, or another doubt; inactive = no such curve, though single readings can be large; an effect the other way counts as inactive or inconclusive;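 also: plate controls were neutral wells for no effect and buffer without enzyme for full effect; nearly all actives have a fitted effect of over 40% in size; top concentration of the series not given in the record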
Target sequence (P25779 123-467 limits assumed): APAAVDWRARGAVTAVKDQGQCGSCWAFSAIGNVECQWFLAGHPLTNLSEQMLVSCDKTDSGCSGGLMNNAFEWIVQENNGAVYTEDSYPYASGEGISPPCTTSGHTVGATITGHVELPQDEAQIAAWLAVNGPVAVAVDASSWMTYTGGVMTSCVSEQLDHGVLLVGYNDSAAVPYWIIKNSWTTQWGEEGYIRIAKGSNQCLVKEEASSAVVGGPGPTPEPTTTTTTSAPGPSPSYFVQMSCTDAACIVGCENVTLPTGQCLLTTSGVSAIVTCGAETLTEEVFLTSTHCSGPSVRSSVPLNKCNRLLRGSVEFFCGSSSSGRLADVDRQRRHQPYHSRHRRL
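15 min RT preincubation of 1.5 nM cruzain with compound, then 2 uM Z-FR-AMC added; kinetic AMC fluorescence, 60 s delta. Triton X-100 0.01%, pH 5.5.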
Cruzain inh noDet: blocks cruzain activity in detergent-free assay; purified cruzain, Z-FR-AMC fluorescence, no detergent; hit rate 2.3% among 200,000; Potency, µM, without a hit: max response, negative = inhibition, actives largely listed as inhibitors; P25779; active = well fitted curve in the direction sought with a large enough effect; inconclusive = small, poorly fitted or top-dose-only effect, or another doubt; inactive = no such curve, though single readings can be large; an effect the other way counts as inactive or inconclusive;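 also: plate controls were enzyme without inhibitor for no effect and buffer without enzyme for full effect; nearly all actives have a fitted effect of over 40% in size; top concentration of the series not given in the record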
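Purified cruzain at 1.5 nM, pre-incubated 15 min with compound at room temperature in 100 mM sodium acetate pH 5.5, 5 mM DTT, 0.00005% Triton X-100. Reaction started with 2 uM Z-FR-AMC; AMC fluorescence increase over 60 s gives rate.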
2A StopGo: FMDV 2A StopGo reporter, luciferase signal | human cells with a luciferase reporter of 2A StopGo recoding; control for the full effect not named in the record | Potency, µM (doses to about 57.9 µM), for inactives: top-dose signal change, negative = less light | hit rate 1.2% among 410,000; active = well fitted falling curve with a large enough effect; inconclusive = small, poorly fitted or top-dose-only effect; inactive = no such curve, though single readings can be large or run the other way; tested in HEK293T cells; also: % is scaled to controls: 0 for no effect and ±100 for the full control effect; nearly all actives have a fitted effect of over 45% in size; luciferase light after 4 h
MARV entry inh: inhibitors of Marburg virus binding or cell entry. AID 540276. Potency, µM (highest dose often 37.8 µM), without a hit: at the highest dose activity change, negative = inhibition, most hits filed as inhibitors. Marburg virus pseudotyped entry inhibition, cell reporter; control for the full effect not named in the record; about a third of the inactives were read at about 46 µM. hit rate 1.8% among 300,000; active = well fitted inhibition curve with a large enough effect; inconclusive = small, poorly fitted or top-dose-only effect, or effect the other way; inactive = flat fitted curve, though single readings scatter; tested in HEK293 cells; about a fifth of its hits are not listed in these tables; also: % is scaled to controls: 0 for no effect and ±100 for the full control effect; luciferase read-out
SARS PLP yeast: SARS-CoV PLP inhibition in yeast; hit rate 0.19% among 330,000; S. cerevisiae expressing SARS-CoV PLpro, growth rescue; control for the full effect not named in the record; AID 485353; Potency, µM (highest dose often 32.9 µM), for inactives: at the top dose activity, positive = growth rescue; also: 0% is about no effect; nearly all actives have a fitted effect of over 55% in size; growth read by luminescence after 48 h
LASV entry inh: inhibitors of Lassa virus binding or cell entry; Lassa virus pseudotype entry inhibition, cell reporter; control for the full effect not named in the record; Potency, µM (series often up to 37.9 µM), without a hit: at the top dose activity change, negative = inhibition, usual class: inhibitors; hit rate 1.2% among 300,000; AID 540256; active means well fitted inhibition curve with a large enough effect; inconclusive means small, poorly fitted or top-dose-only effect, or effect the other way; inactive means flat fitted curve, though single readings scatter; tested in HEK293 cells; also: % is scaled to controls: 0 for no effect and ±100 for the full control effect; nearly all actives have a fitted effect of over 50% in size; luciferase read-out
The depositor's hits bear a star; ? = inconclusive; · = not tested or not shown; & = joins results of further samples; [ ] = dose if it differs, or a comment. Unless noted, calls follow the shape of the dose curve; as a rule, active means well fitted rising curve with a large enough effect; inconclusive means small, poorly fitted or top-dose-only effect; inactive means no such curve, though single readings can be large or run the other way. Potency is read from the fitted curve at half-maximal effect.

SMILES	RE007 growth inh	NS1 function inh	Cruzain Triton	Cruzain inh noDet	2A StopGo	MARV entry inh	SARS PLP yeast	LASV entry inh
Cc1ccc(C)c(-n2c(-c3ccncc3)n[nH]c2=S)c1	3%	1%	·	·	-2%	?	0%	9%
Cc1ccc(OCC(=O)NS(=O)(=O)c2ccccc2)cc1	16%	1%	·	·	78%[activator]	21%[46.1 µM]	0%	-2%[46.1 µM]
COC(=O)COc1cccc(NC(=O)c2ccc(Cl)cc2)c1	-19%	-8%	·	·	-18%	?	-3%	1%
O=C(COC(=O)C1CCN(c2ccc(C(F)(F)F)cn2)CC1)NCCc1ccccc1	-12%	·	·	·	-9%	-3%	-16%	13%
CCc1ccc(N=c2c([N+](=O)[O-])nn(-c3ccccc3)n2O)cc1	0%	-6%	-4.0%	?	-28%	?	-16%	-5%
COc1ccc(OC)c(Nc2cc(C(=O)NCCCN3CCOCC3)c3ccccc3n2)c1	-6%	-12%	-6.3%	-2%	-19%	?	3%	?
CCC(C)NCCOCCOc1ccc(C)cc1OC (stereo not given)	·	0%	-1.0%	4%	-2%	-30%	4%	10%
Cc1cccc(N2C(=O)CSC23C(=O)N(C)c2ccccc23)c1 (stereo not given)	·	·	-2.4%	-2%	4%	·	·	6%[46.1 µM]
O/N=C/c1cc(Br)cc(Br)c1OCc1ccccc1	-13%	5%	-2.7%	-1%	?	10%	2%	-2%
O=C(Nc1nnc(-c2ccccc2F)s1)C1CCN(S(=O)(=O)c2ccc(Cl)cc2)CC1	-10%	5%	-1.5%	?	-9%	13%	16%	?
O=C1C2CCCCC2C(=O)N1Cc1ccccc1 (stereo not given)	-5%	-3%	·	·	-7%	16%[46.1 µM]	0%	2%[46.1 µM]
O=C(COc1ccc(/C=N/NC(=O)c2ccncc2)cc1)Nc1cccc([N+](=O)[O-])c1	-9%	5%	·	·	3%	-3%[46.1 µM]	-2%	?
O=C(OCc1nc2ccc(Cl)cc2n1CCO)c1ccc2c(c1)OCO2	0%	1%	-30%	-30%	-23%	?	-8%	22%
CC(C)c1[nH]c(=O)c(C#N)c2c1CSC(C)(C)C2	2%	15%	5.8%	-5%	40%[activator]	-4%&-4%	-4%	26%
CCN(CC)c1ccc(/C=C2\CCC(/C=C(/C#N)C(=O)Nc3ccccc3F)=C2N2CCOCC2)cc1	-10%	·	·	·	-22%	5%[46.1 µM]	·	-9%[46.1 µM]
Cc1ccc(S(=O)(=O)NCc2cccnc2)cc1	3%	3%	·	·	23%	?	17%	?
COc1ccc(C(C(=O)NC2CCCCC2)N(C(=O)c2ccco2)c2ccc(-n3cnnn3)c(C)c2)cc1 (stereo not given)	2%	·	·	·	-5%	-6%	·	-10%
CCOc1ccccc1NC(=O)Cn1nnc(C(=O)Nc2ccc(C)cc2)c1N	-8%	-9%	0.1%	-2%	-18%	-3%[46.1 µM]	-2%	2%
CCCN1CCN(CCCNC(=O)Cn2nc(C)n3c(cc4cc(F)ccc43)c2=O)CC1	-14%	-13%	-1.0%	14%	4%&-13%	-16%&-16%[46.1 µM]	-2%	·
COc1ccc(C)cc1S(=O)(=O)NCC(c1cccs1)S(=O)(=O)c1ccc(C)cc1 (stereo not given)	·	·	-4.2%	-4%	26%	·	·	?
CC1(C)Cc2c(cnn2-c2ccccc2)C(NC(=O)CCN2CCCC2=O)C1 (stereo not given)	0%	-2%	·	·	-1%	·	4%	·
COc1ccc2c(c1OC)C(=O)N1C2SC(C)(C)[C@H]1C(=O)NCC(C)C (stereo not given in full)	15%	3%	·	·	-14%	·	-2%	·
CCCCC(NC(=O)Cc1c(C)c2cc3c(-c4ccccc4)coc3c(C)c2oc1=O)C(=O)O (stereo not given)	9%	?	·	·	-9%	-16%[46.1 µM]	1%	-11%[46.1 µM]
Nc1nc(SCc2ccc(Cl)c(Cl)c2)n[nH]1	-14%	-38%	-2.0%	17%	7%	-14%[46.1 µM]	0%	2%
Cc1cc(NC(=O)Cn2nc(-c3ccccc3F)ccc2=O)ccc1-n1cnnn1	16%	0%	-4.5%	-7%	-4%	-8%	4%	2%
Cc1nc2cc(N3CCOCC3)c(NC(=O)C3CC3)cc2c(=O)n1Cc1ccccc1	-21%	-21%	-1.5%	?	-2%	0%	-5%	-4%
COc1cc(/C=C2\SC(=S)N(CC(=O)NC(C)(C)C)C2=O)cc(OC)c1OC	4%	·	·	·	?	-1%	-2%	2%
Cc1ccc(-n2c(SCc3ccccc3F)nc3[nH]ncc3c2=O)cc1C	·	·	-7.2%	-2%	-28%	·	·	?
COCCn1c(SCC(=O)NCC(c2ccccc2)N(C)C)nc2sc3c(c2c1=O)CCC3 (stereo not given)	1%	·	·	·	-10%	-22%	·	1%
CCOC(=O)c1c(NC(=O)c2cc(-c3ccc(Br)cc3)on2)sc(C(C)=O)c1C	·	·	1.7%	5%	-11%	?	·	1%[46.1 µM]
O=C(COC(=O)c1cc(=O)[nH]c2ccccc12)NC1CCCCCCC1	13%	·	·	·	3%	-13%[46.1 µM]	-1%	-3%
O=c1[nH]c(CSc2ncnc3sc(-c4ccccc4)cc23)nc2ccccc12	-9%	2%	·	·	15%	18%[46.1 µM]	0%	26%
O=C(CSc1ncnc2c1oc1ccccc12)NC1CCCC1	7%	3%	·	·	-3%	·	3%	·
CCOc1ccc(-c2cccc(NC(=O)c3ccco3)c2)nn1	-3%	·	·	·	4%	-6%	-5%	-11%
Cn1c(C(=O)N2CCC(C(N)=O)CC2)cc2c(=O)n(C)c3ccccc3c21	2%	2%	2.5%	-4%	-9%	2%	0%	·
Cc1ccccc1-c1noc(-c2ccc(N3CCC(C)CC3)c([N+](=O)[O-])c2)n1	·	·	-15%	30%	36%[activator]	?	·	1%[46.1 µM]
CCc1c(C(=O)N/N=C/c2ccc(OCc3ccc(F)cc3)c(OC)c2)nnn1-c1nonc1N	7%	1%	·	·	-19%	?	3%	-8%[46.1 µM]
CCOCCCNS(=O)(=O)c1ccc(NC(=O)c2ccccc2)cc1	12%	2%	2.5%	4%	·	-9%	1%	4%
CCOP(=O)(c1c(F)c(F)c(F)c(F)c1F)C(O)c1ccccc1 (stereo not given)	6%	-5%	2.3%	7%	0%	10%[46.1 µM]	10%	0%
Cc1ccc(CNC(=O)c2cc3c(=O)n4cccc(C)c4nc3s2)cc1	·	·	-3.1%	-8%	?	8%[46.1 µM]	·	-27%[46.1 µM]
Cc1cccnc1NC(=O)c1ccc(NS(=O)(=O)c2ccc3[nH]c(=O)[nH]c3c2)cc1	-22%	·	·	·	-23%	1%	3%	10%
Oc1ccc(/C=N/n2c(-c3ccco3)csc2=Nc2cccnc2)c(O)c1	-9%	?	-10%	-8%	-29%	?	-10%	?
COc1ccccc1NC(=O)c1cn(-c2ccccc2)nc1-c1ccccc1	·	·	-2.9%	4%	-23%	6%[46.1 µM]	·	-4%[46.1 µM]
O=c1c(C=Nc2cccc(C(F)(F)F)c2)c[nH]n1-c1cccc(Cl)n1	7%	1%	6.2%	13%	2%	-9%	5%	-2%
COc1ccc(CSCCc2n[nH]c(=S)n2-c2ccccc2)cc1	12%	12%	·	·	-19%	-2%[46.1 µM]	2%	?
COC(=O)c1ccc(/C=N/NC(=O)CCSc2nc3ccccc3s2)cc1	·	-6%	-1.9%	4%	·	·	13%	·
c1ccc(-c2[nH]c[n+](CC3CO3)c2-c2ccccc2)cc1 (stereo not given)	·	30%	-15%	?	·	·	-10%	·
COc1ccc(OC)c(NC(=O)CSc2ccc3nnc(-c4cccnc4)n3n2)c1	-5%	·	·	·	-16%	-16%	-1%	15%
CCOc1ccc(-c2nc(SCC(=O)Nc3ccc4c(c3)OCCO4)c(-c3ccc(F)cc3)[nH]2)cc1	·	·	-2.5%	2%	-17%	19%[46.1 µM]	·	-27%[46.1 µM]
COc1ccc(N2CCN(C(=O)c3ccc4c(c3)OCO4)CC2)cc1	-9%	13%	2.0%	4%	25%	-2%	5%	6%
CC(=O)OCC1=C(C(=O)O)N2C(=O)C(NC(=O)Cn3nc(C(F)F)c(Cl)c3C)C2SC1 (stereo not given)	5%	·	·	·	-1%	10%[46.1 µM]	-3%	-5%
CCOc1ccc(S(=O)(=O)N2CCCCC2)cc1NC(=O)C1COc2ccccc2O1 (stereo not given)	0%	·	·	·	?	?	-3%	-18%
O=C(CCNC(=O)c1ccc(Br)cc1)Nc1cccc(S(=O)(=O)N2CCCC2)c1	1%	·	·	·	-23%	-11%	1%	10%[46.1 µM]
O=C(Nc1nccs1)C1(c2ccc(Cl)cc2)CC1	-13%	6%	·	·	-6%	0%[46.1 µM]	3%	-17%[46.1 µM]
CN(/C(=N\S(=O)(=O)c1ccccc1)C(F)(F)F)c1ccccc1	-11%	11%	5.3%	5%	-3%	1%	-3%	-4%
Cc1c(Cl)c([N+](=O)[O-])nn1CC(=O)NCc1cccnc1	-4%	1%	·	·	6%	6%[46.1 µM]	1%	?
CCOc1ccc(OCc2cccc(C(=O)N3CCCC3)c2)cc1	14%	-53%	-0.8%	9%	·	?	-7%	?
O=C(NCCN1CCOCC1)C(=O)NCC1OCCN1S(=O)(=O)c1ccccc1 (stereo not given)	5%	-66%	·	·	10%	2%[46.1 µM]	-3%	?
CCOc1ccccc1OCCCC(=O)NNC(=O)c1ccc(F)cc1	-6%	·	·	·	-5%	18%[46.1 µM]	4%	18%[46.1 µM]
CCNC(=O)CCSc1nnc(-c2ccncc2)o1	2%	·	·	·	-5%	?	3%	5%
Other compounds follow:
SMILES	RE007 growth inh	NS1 function inh	Cruzain Triton	Cruzain inh noDet	2A StopGo	MARV entry inh	SARS PLP yeast	LASV entry inh
CC(=O)Nc1ccc(S(=O)(=O)N2CCN(Cc3cccc([N+](=O)[O-])c3)CC2)cc1	-26%	-10%	·	·	?	-3%[46.1 µM]	-1%	-6%
O=C(c1ccccc1)c1cc(-c2ccccn2)c(N2CCOCC2)s1	0%	-28%	-5.9%	0%	-15%	?	1%	-10%
COc1ccc(OC)c(NC(=O)CSc2nnnn2C2CCCC2)c1	22%	0%	·	·	-20%	-5%[46.1 µM]	0%	1%
COc1ccc(S(=O)(=O)NCCCO)cc1-c1nnc2c3ccccc3c(C)nn12	·	·	2.8%	16%	-7%	14%[46.1 µM]	·	-8%[46.1 µM]

Compounds were not picked by outcome. Share with any hit: about 4.8%.
